KCNQ2 enhance: KCNQ2 (rat) channel potentiation; CHO-K1 KCNQ2, FluxOR thallium flux fluorescence; stronger effect = higher value; B-score at 10 µM; 0.54% of 310,000 active;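 active = fluorescence ratio B-score at least 3 SD of library B-scores, with initial fluorescence B-score within 3 SD, cut at about 5.3 in these data; same plate scores as AID 2156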;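 note: B-score of peak minus minimum over baseline fluorescence ratio after K+ and Tl+ stimulus; positive B-score means potentiation of KCNQ2 with more thallium influx and brighter signal; only the inactives scoring about 0 or higher are listed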
Target sequence (O88943 whole entry, looked up): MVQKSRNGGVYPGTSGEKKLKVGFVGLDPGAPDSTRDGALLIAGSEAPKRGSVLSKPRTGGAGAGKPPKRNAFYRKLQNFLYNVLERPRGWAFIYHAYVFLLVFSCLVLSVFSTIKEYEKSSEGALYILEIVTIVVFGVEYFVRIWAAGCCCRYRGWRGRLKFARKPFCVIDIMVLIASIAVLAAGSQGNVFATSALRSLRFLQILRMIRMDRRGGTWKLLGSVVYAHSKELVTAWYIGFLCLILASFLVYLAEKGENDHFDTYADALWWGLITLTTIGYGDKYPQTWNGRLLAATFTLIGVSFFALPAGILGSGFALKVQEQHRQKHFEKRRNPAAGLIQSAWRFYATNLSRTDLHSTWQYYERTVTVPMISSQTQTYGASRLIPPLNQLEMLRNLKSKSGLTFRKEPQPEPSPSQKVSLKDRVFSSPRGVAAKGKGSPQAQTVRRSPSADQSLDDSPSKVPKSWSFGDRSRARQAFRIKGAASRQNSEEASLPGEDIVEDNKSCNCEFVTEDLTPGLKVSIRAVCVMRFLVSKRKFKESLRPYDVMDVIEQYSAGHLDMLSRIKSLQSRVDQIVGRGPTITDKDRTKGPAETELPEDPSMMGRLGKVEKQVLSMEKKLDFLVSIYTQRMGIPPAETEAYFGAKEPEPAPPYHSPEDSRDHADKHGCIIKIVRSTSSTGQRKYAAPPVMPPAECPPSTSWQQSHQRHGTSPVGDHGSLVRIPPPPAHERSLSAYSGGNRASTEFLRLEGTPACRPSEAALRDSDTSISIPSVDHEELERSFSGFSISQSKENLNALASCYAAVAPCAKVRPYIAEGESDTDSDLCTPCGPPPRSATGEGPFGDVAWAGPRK
KCNQ2 enhance baseline: second read-out of KCNQ2 enhance, no call of its own (marks repeat the call); B-score; compound at 10 µM; measured here: initial fluorescence intensity artifact check;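 brightness before thallium and not channel activity; 0 = typical well and far values either way flag optical interference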
* = called active by the depositor.

KCNQ2 enhance | KCNQ2 enhance baseline | smiles
1.6 | -0.08 | CCN1CCN(C(CC(C)C)c2nnnn2CS(=O)(=O)c2ccc(C)cc2)CC1 (centres undefined)
1.7 | -0.18 | Cc1cccc(C(=O)OCC(=O)NCC(C)C)c1O
0.1 | 0.11 | Cc1ccsc1/C=N/NC(=O)C1CC(=O)N(c2ccc(F)cc2)C1 (centres undefined)
0.85 | 0.9 | CC(=O)Nc1ccc(S(=O)(=O)Nc2nc3ccccc3nc2-n2ccc(=NC(=O)c3ccc(F)cc3)cc2)cc1
0.02 | 1 | Cc1ccc(NC(=O)CSc2nnc3n2CCCCC3)cc1
0.67 | -0.17 | CC(=O)c1ccc(NC(=O)c2noc3c2CCC3)cc1
0.06 | -0.05 | CCCCn1c2ccc(F)cc2c2nnc(SCCN3CCCCC3)nc21
1.1 | -0.36 | CCOC(=O)CC1Sc2ccccc2NC1=O (centres undefined)
0.23 | 0.21 | CCCC(C)C(=O)Nc1ncc(S(=O)(=O)c2ccc([N+](=O)[O-])cc2)s1 (centres undefined)
0.54 | 0.35 | CCCNS(=O)(=O)c1ccc(CCC(=O)NCCc2ccc(OC)c(OC)c2)cc1
0.65 | -0.38 | COc1ccc(C2C(C(=O)O)CC(=O)N2C2CCCCC2)cc1 (centres undefined)
0.3 | -0.22 | CCOC(=O)Nc1cccc(NC(=O)c2ccccc2F)c1
1.4 | -0.49 | CCC1(CC)NC(=O)N(CC(=O)OCC(=O)NC(=O)c2ccccc2OC)C1=O
0.01 | 0.19 | O=C(CN1C(=O)CSc2ncccc21)Nc1cccc(Cl)c1
0.72 | -2.1 | Cc1nnc(SCc2ccccc2Cl)n(N)c1=O
0.27 | 0.28 | CC(C)N1CC(C(=O)Nc2cc(Cl)cc(Cl)c2)CC1=O (centres undefined)
1.6 | 0.84 | C#CCOc1ccccc1C(N)=O
2.4 | 0 | Cn1c(=O)[nH]c(=O)c2c1nc(N1CCCCCC1)n2CCCSc1nnnn1-c1ccccc1
0.16 | 0.14 | Cc1ccc(C(=O)OCC(=O)Nc2ccccc2C(F)(F)F)cc1S(=O)(=O)N1CCOCC1
0.09 | 0.36 | CCN(CC)CCN(C)Cc1nc(C(c2ccccc2)c2ccccc2)no1
3.5 | -0.83 | Cc1ccc(-c2csc(NC(=O)c3cccc(C)c3)c2C(=O)O)cc1
0.02 | 0.95 | CC(Oc1ccc2c3c(c(=O)oc2c1)CCCC3)C(=O)NC1CC(C)(C)NC(C)(C)C1 (centres undefined)
1.6 | 0.02 | CC(C)(C)c1ccc(C(=O)N2CCN(CCNC(=O)C(=O)Nc3ccc(F)cc3)CC2)cc1
1.1 | -0.18 | c1ccc(CCNc2nnnn2-c2ccccc2)cc1
0.35 | 0.52 | CC(=O)Nc1ccc(NC(=O)c2ccc(-c3ccc([N+](=O)[O-])cc3)o2)cc1
0.61 | 0.01 | COc1ccc(-c2csc(Nc3ccccc3)n2)cc1
0.18 | -0.29 | COc1ccc(N2C(N)=NC(N)=NC2(C)C)cc1
1.1 | -0.26 | CCOC(=O)C1C(=O)N(C(=O)c2ccc(OC)cc2)CC1c1ccccc1 (centres undefined)
8.1* | 0.17* | CC(C)(C)NC(=O)CSc1nnc(-c2ccccn2)n1Cc1ccccc1
1.4 | -0.81 | COc1ccccc1CNC(=O)CCNS(=O)(=O)c1ccc2c(c1)CC(C)N2C(C)=O (centres undefined)
0.02 | 1.2 | CN(C)S(=O)(=O)c1cccc(C(=O)Nc2ccccc2Cl)c1
0.24 | -0.25 | CC1CCCN(C2=NC(=O)/C(=C/c3cn(-c4ccccc4)nc3-c3cccc(S(=O)(=O)N(C)C)c3)S2)C1 (centres undefined)
1 | -0.03 | O=C(O)CCCCCCCCc1cn(CC2CCCCC2)nn1
0.59 | -0.78 | Cc1ccc(NC(=O)CCNC(=O)c2ccc(Cl)cc2)nc1
1.3 | 0 | Nc1c(C(=O)Nc2ccc(Cl)cc2)oc2ccccc12
0.89 | 0.37 | CCOC(=O)c1ccc(-c2ccc(/C=N/NC(=O)Cc3nnc(N)s3)o2)cc1
1.5 | -0.1 | O=C(CCc1ccccc1)N=C1SC2CS(=O)(=O)CC2N1c1ccccc1 (centres undefined)
1.6 | -0.81 | Cc1[nH]c2ccccc2c1C(=O)C(=O)NCC1CCCO1 (centres undefined)
0.44 | 3.3 | CCOc1ccccc1N=Nc1c(C)[nH]n(C(N)=S)c1=O
0.26 | -0.04 | COc1ccc(OCC(O)CN2CCc3ccccc3C2)cc1 (centres undefined)
1 | -0.31 | CCN1C(=O)c2ccccc2S(=O)(=O)c2ccc(C(=O)NCC(OC)OC)cc21
0.09 | 1.4 | Cc1ccc(NC(=O)c2ccco2)c(NC(=O)c2ccccc2)c1
0.11 | 1.1 | Cc1cccc(NC(=O)CSc2nc3ccccc3o2)c1
0.6 | 1 | Cc1ccc(-n2nc(C)c3c(C)c(CCC(=O)NCC4CCCO4)c(=O)n(C)c32)cc1 (centres undefined)
0.41 | 0.23 | CCSc1nnc(NC(=O)C(C(F)(F)F)C(F)(F)F)s1
0.1 | -1.3 | CCOC(=O)c1c(-c2ccc(-c3ccccc3)cc2)csc1NC(=O)c1cccc(N2C(=O)CCC2=O)c1
2.2 | -0.66 | NC(=O)N1CCCC1C(=O)Nc1ccc(Cl)c(Cl)c1 (centres undefined)
0.01 | -0.63 | O=C1CCCc2ccccc2N1Cc1cccc(F)c1
0.05 | -1.6 | COc1ccc(-c2nc3ccccc3c(C(=O)Nc3ccc(S(=O)(=O)Nc4cc(C)on4)cc3)c2C)cc1
0.7 | 0.67 | CCCOc1ccc(N2C(=O)CC(N3CCCC(C(=O)N4CCCC4)C3)C2=O)cc1 (centres undefined)
1.1 | -0.2 | O=C(Nc1ccccc1C(=O)NC(Cc1ccc(O)cc1)C(=O)O)c1ccccc1 (centres undefined)
1.6 | -2 | O=C1C=C(c2ccc3[nH]ccc3c2)CCC1
0.05 | 0 | COc1ccc(C2C(C#N)=C(N)Oc3c2oc(CO)cc3=O)cc1 (centres undefined)
0.88 | -1.9 | O=C1CC(c2ccc(F)cc2)CC2=C1C=Nc1ccccc1N2 (centres undefined)
0.02 | -0.52 | Cc1noc(C)c1S(=O)(=O)Nc1cccc(C(F)(F)F)c1
0.18 | 1.2 | COc1ccc(-c2csc(NC(=O)C3=COCCO3)n2)c(OC)c1
0.21 | -1.5 | CCn1c(SCc2nc3scc(-c4ccccc4)c3c(=O)[nH]2)nnc1-c1ccc(Cl)cc1
0.95 | 1.3 | Cc1cc(C)n2c(SCC(=O)NCc3ccc4c(c3)OCO4)nnc2n1
1.9 | 0.92 | COC(=O)CSc1ncnc2c1sc1nc3c(cc12)COC(C)(C)C3
0.64 | 0.39 | Cc1ccccc1OCCC(=O)OCC(=O)NC(C)c1ccccc1 (centres undefined)

The list continues:
KCNQ2 enhance | KCNQ2 enhance baseline | smiles
0.22 | -0.37 | Cc1ccccc1C(=O)Nc1cccc(-c2cn3ccccc3n2)c1
0.02 | -0.46 | COc1ccc(NC(=O)CNC(=O)c2c(C)nn(C)c2Cl)cc1
0.76 | -2.1 | Cc1noc(C)c1CSCC(=O)Nc1cc(S(=O)(=O)N2CCOCC2)ccc1OCC(F)(F)F
0.06 | 0.12 | COCCN(Cc1cc2ccc(C)cc2n2nnnc12)Cc1nnnn1C(C)(C)C
0.35 | -1.1 | COc1ccc2c(Cl)c(C(=O)N/N=C/c3ccc4c(c3)OCO4)sc2c1
0.66 | 0.24 | CCOC(=O)N1CCN(C(=O)COC(=O)CN(C)S(=O)(=O)c2ccc(NC(C)=O)cc2)CC1
0.48 | 0.96 | CC(C)c1c(C(=O)N/N=C/c2ccc(Cl)cc2Cl)nnn1-c1nonc1N
0.23 | -0.88 | O=C(/C=C/c1ccccc1F)N1CCN(c2ccccn2)CC1
0.03 | 0.2 | CN(C)c1nc(OCCNC(=O)COc2ccc(Cl)cc2Cl)nc(N2CCOCC2)n1
0.53 | -0.82 | CC(OC(=O)c1ccc(-n2cnnn2)cc1)C(=O)NCc1ccccc1 (centres undefined)
0.81 | 0.98 | COC(=O)CCC(=O)OC1(C)C(=O)C2=CN(CCN3CCOCC3)C(c3ccc(OC)cc3)=CC2=C(Br)C1=O (centres undefined)
0.17 | 0.3 | Cc1nn(-c2ccccc2)c2c1C1(C(=O)N(C)c3ccccc31)C(C#N)=C(N)O2 (centres undefined)
1.9 | -2.1 | Nc1nnc(SCn2nnc3ccccc3c2=O)s1
5.3* | 0.95* | COc1cc(Br)cc(/C=N/NC(=O)Cc2ccccc2)c1O
0.07 | -0.61 | CCOC(=O)N1CCN(C(=O)c2cn(CC)c3ccc(S(=O)(=O)N(C)C4CCCCC4)cc3c2=O)CC1
0.28 | 0.52 | C/C(=N\NC(=O)c1cc(O)ccc1O)c1cccc(NC(=O)c2cccc(Cl)c2)c1
1.6 | 0.14 | c1ccc2c(N3CCCCC3)nc(N3CCCCC3)nc2c1
0.36 | 0.33 | Cc1ccc(NC(=O)C2CCCN(S(=O)(=O)c3c(C)noc3C)C2)c(Br)c1 (centres undefined)
1.5 | -0.14 | Cc1cccc(-n2c(C)cc(/C=N/NC(=O)c3ccc(CN4CCOCC4)cc3)c2C)c1
0.26 | 2.4 | COCCC(=O)Nc1ccc2c(c1)CN(C(=O)CCSC)CC2
0.36 | -2.2 | COc1cc(C2=NOC(C(=O)NC3CCCCC3)C2)cc(OC)c1OC (centres undefined)
1.6 | 0.11 | Cc1cc(OCCCCCNCCO)ccc1Cl
0.24 | -0.71 | O=C(CSc1nnc(CSc2nc3ccccc3s2)o1)NC1CCCCC1
0.38 | 0.71 | CCOC(=O)N1CCN(c2c(N3CCC(N4CCCCC4)CC3)c(=O)c2=O)CC1
0.21 | 2.3 | CNNCc1ccc(C(=O)NC(C)C)cc1
1.8 | 0.71 | Cc1ccc(CS(=O)Cc2ccc(C(=O)NC3CCCCCC3)o2)cc1 (centres undefined)
0.92 | -0.48 | Nc1ccc(C(=O)Oc2ccc([N+](=O)[O-])cc2)c(O)c1
0.71 | -0.72 | O=C(O)C1CC(=O)N(c2ccc(OCc3ccc(Br)cc3)cc2)C1 (centres undefined)
0.77 | -1.3 | O=C(CN1C(=O)c2cccnc2Oc2ccc(Cl)cc21)NC1CCCCC1
0.59 | -2 | Cc1ccc2c(C(=O)CN3CCCC(C)C3)c(C)[nH]c2c1 (centres undefined)
0.21 | -0.69 | Cn1cc(C(=O)C(=O)N2CCCC2)c2ccccc21
0.32 | -0.26 | Cc1[nH]c2ccccc2c1SCc1nnc(SCc2ccc(Cl)cc2)n1C
0.02 | 0.52 | O=C(Nc1ccc2c(c1)OCO2)c1ccc([N+](=O)[O-])cc1[N+](=O)[O-]
0.67 | 0.5 | COc1ccc(/C=C/C(=O)NCC(=O)N2CCC(N(C)CCN3CCOCC3)CC2)cc1OC
0.1 | 0.71 | O=C(NCC1CCCO1)c1ccc(Br)s1 (centres undefined)
0.45 | 0.02 | CCOC(=O)NS(=O)(=O)c1ccc(CCNC(=O)c2cc(C)on2)cc1
0.27 | -1.6 | Cc1ccc2nc(NC(=O)CCn3c(=O)sc4ccccc43)sc2c1
0.71 | -1.1 | CC1(C)CC(=O)C2=C(C1)N(c1ccc(F)cc1)C(=O)CC2c1cccnc1 (centres undefined)
0.51 | 0.17 | COc1ccc(S(=O)(=O)N2CCC(C(N)=O)(N3CCCCC3)CC2)cc1OC
0.01 | 0.02 | COc1ccc(NC(=S)N2CCC(N(C)CCN3CCOCC3)CC2)cc1
0.01 | 0 | Cc1sc2c(c1C)C(=O)NC(c1ccccc1F)N2 (centres undefined)
0.02 | 1.8 | CCc1ccc(C(=O)NNc2cc(Cl)cc(Cl)c2)cc1
0.33 | -1.6 | CS(=O)(=O)N1CCC(C(=O)Nc2cccc([N+](=O)[O-])c2)CC1
0.49 | 1.2 | Cc1cc(NC(=O)c2ccc3c(c2)OCCO3)no1
1.7 | -1.1 | COC(=O)c1ccc[n+](CCc2c[nH]c3ccccc23)c1
0.91 | 0.28 | CCC(C)NC(=S)NNC(=O)c1ccncc1 (centres undefined)
1.2 | -1.1 | c1ccc(CNCC2COc3ccccc3O2)cc1 (centres undefined)
1.3 | -1.1 | COC(=O)N1C/C=C\C(c2ccc(OC)cc2)N(Cc2ccc(F)cc2)C(=O)C1 (centres undefined)
0.12 | -0.72 | FC(F)(F)c1ccc(N/N=C/c2cccnc2)nc1
0.11 | -0.68 | COc1ccc(CC(=O)NC(C)c2nnc(SCCC(=O)Nc3ccccc3)n2C)cc1 (centres undefined)

Screening results (PubChem)

Not all compounds are listed; count on the stated rates, not on these rows.
